From PubChem BioAssay
Luciferase inh: blocks Photinus pyralis firefly luciferase activity; Potency, µM (highest dose often 57.1 µM), inactives show at the highest dose activity change, negative = inhibition, actives largely listed as inhibitors; purified firefly luciferase, luminescence, 8 min; 72,000 compounds, 2.2% hits; AID 411; P08659; also: potency is read from the fitted curve at half-maximal effect; % is scaled to controls: 0 for no effect and ±100 for the full control effect; nearly all actives have a fitted effect of over 40% in size
Target sequence (P08659 whole entry, looked up): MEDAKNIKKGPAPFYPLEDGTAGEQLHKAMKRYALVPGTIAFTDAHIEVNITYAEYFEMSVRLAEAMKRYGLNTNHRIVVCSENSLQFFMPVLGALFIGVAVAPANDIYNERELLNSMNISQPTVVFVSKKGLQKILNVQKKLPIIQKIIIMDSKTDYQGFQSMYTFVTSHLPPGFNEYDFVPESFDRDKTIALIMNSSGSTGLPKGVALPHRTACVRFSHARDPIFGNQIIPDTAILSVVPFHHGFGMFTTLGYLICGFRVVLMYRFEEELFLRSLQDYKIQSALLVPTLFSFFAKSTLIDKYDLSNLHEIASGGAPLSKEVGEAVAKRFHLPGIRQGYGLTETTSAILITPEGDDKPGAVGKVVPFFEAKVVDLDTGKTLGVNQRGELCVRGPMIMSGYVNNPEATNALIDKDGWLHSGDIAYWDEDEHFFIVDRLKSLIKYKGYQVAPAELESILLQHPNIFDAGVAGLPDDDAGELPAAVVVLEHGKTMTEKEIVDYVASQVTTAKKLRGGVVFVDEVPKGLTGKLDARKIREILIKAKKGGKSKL
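Here, luciferase activity is measured as luminescence following an 8 min room-temperature reaction at 10 uM ATP, pH 7.2. Every library sample is titrated.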
Rhodamine fluor: compound autofluorescence in rhodamine spectral region; Rhodamine-region fluorescence, 547/598 nm, Tris buffer; stronger effect = higher value; max dye-equivalent concentration, M; 59,000 compounds, 0.05% hits; AID 594; in the data active = max dye-equivalent concentration above about 11 nM; inconclusive = between about 1.1 nM and that limit
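Intensities are converted to rhodamine-equivalent concentration using a six-point rhodamine standard on each plate. Compounds sit 15 min at room temperature in 100 mM Tris buffer, pH 8.0; read uses the 547/598 nm excitation/emission pair.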
ERK AVP inh: vasopressin-driven ERK pathway inhibition. HEK293-V1b, vasopressin-stimulated pERK AlphaScreen. Potency, µM (top dose mostly 57.5 µM), inactives show at the highest dose activity, negative = inhibition, hits mostly inhibitors. 72,000 compounds, 0.99% hits. AID 995; also: potency is read from the fitted curve at half-maximal effect; % is scaled to controls: 0 for no effect and ±100 for the full control effect; nearly all actives have a fitted effect of over 55% in size
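Phosphorylated ERK1/2 detected via AlphaScreen bead proximity in lysates of V1b-expressing HEK293 cells given 25 nM vasopressin for 5 min after 30 min compound exposure (37 °C). AC50 from Hill equation; basal DMSO 0%, vasopressin 100%.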
DNA Pol III inh: inhibitors of bacterial DNA polymerase III holoenzyme | reconstituted DNA polymerase III holoenzyme replication, biochemical | Potency, µM (titrated, usually from 57.1 µM), for the others: at the highest dose activity change, negative = inhibition | 71,000 compounds, 0.25% hits; also: potency is read from the fitted curve at half-maximal effect; % is scaled to controls: 0 for no effect and ±100 for the full control effect
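Reconstituted *E. coli* holoenzyme (0.35 nM Pol III, 1 nM beta, 154 nM SSB, 2 nM primase) was preincubated with compound for 15 min at RT. Synthesis on 1.4 nM ssM13Gori ran 35 min, then was stopped with PicoGreen/EDTA and read as dsDNA fluorescence.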
TexasRed autofl: Texas Red region autofluorescence | Compound fluorescence, Texas Red channel, 547/618 nm; stronger effect = higher value | max dye-equivalent concentration, M | 59,000 compounds, 0.06% hits; in the data active = max dye-equivalent concentration above about 10 nM; inconclusive = between about 1.1 nM and that limit
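Compound fluorescence was read after 15 min at room temperature in 100 mM Tris, pH 8.0, using 547 nm excitation and 618 nm emission across a concentration series. It was expressed as Texas Red dye-equivalent concentration from an on-plate standard curve.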
Tau filament bind: binders of human tau filaments. P10636. AID 596. recombinant tau filaments, thioflavin S fluorescence, 15 h; filaments grown with octadecylsulfate alongside compound. 71,000 compounds, 2% hits. Potency, µM (titrated, usually from 57.1 µM), for inactives: top-dose activity change, negative = inhibition;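 also: potency is read from the fitted curve at half-maximal effect; % is scaled to controls: 0 for no effect and ±100 for the full control effect; actives lower thioflavin S fluorescence by blocking filaments or displacing dye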
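Read-out: ThS fluorescence, 450 nm excitation/510 nm emission; lower signal marks blocked filament formation or displaced dye. Tau at 1 uM with 30 uM ODS, 10 uM ThS, 5 mM DTT, 100 mM NaCl, 10 mM HEPES pH 7.4; 15 h, 37 C.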
ALOX15 inhib: inhibitors of human 15-lipoxygenase (ALOX15); 74,000 compounds, 1.4% hits; P16050; purified 15hLO-1, xylenol orange hydroperoxide absorbance; Potency, µM (titrated, usually from 57.1 µM), for inactives: at the highest dose activity change, negative = inhibition, usual class: inhibitors; also: potency is read from the fitted curve at half-maximal effect; % is scaled to controls: 0 for no effect and ±100 for the full control effect; nearly all actives have a fitted effect of over 55% in size
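Purified human 15hLO-1 (40 nM final) in 25 mM Hepes pH 7.5, 0.01% Triton X-100 was preincubated with compound 15 min at room temperature, then reacted 6 min with 50 uM arachidonic acid; hydroperoxide detected by Fe-XO, 573/405 nm absorbance ratio.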
CRE Fsk mod: modulators of forskolin-stimulated CRE signaling in CHO cells | CHO CRE-bla reporter (cAMP response element driving beta-lactamase), forskolin EC10, beta-lactamase ratio | Potency, µM (highest dose often 38.2 µM), without a hit: at the top dose activity change, negative = inhibition, usual class: activators | 71,000 compounds, 2.5% hits | AID 662; active = well fitted activation curve with a large enough effect in the signal ratio, with a control signal flat, not every such curve was filed as active; inconclusive = small, poorly fitted or top-dose-only effect, or effect the other way, or a change in a side signal; the % refers to the signal ratio; also: potency is read from the fitted curve at half-maximal effect; % of control where 0% means no effect
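The 460nm/530nm emission ratio after CCF4 loading defined %Activity, from which AC50 values were obtained. CRE-bla CHO cells received compound dilution series together with an EC10 level of NKH 477 for 3 hours at 37 degrees Celsius.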
Hsp90 Hop PPI: changes Hsp90-Hop TPR2A binding signal, up or down | Potency, µM (doses to about 57 µM), for the others: at the top dose activity change, negative = inhibition | 71,000 compounds, 0.44% hits | AID 595 | AlphaScreen TPR2A-His6 binding biotin-Hsp90 C-terminal peptide; active = well fitted curve in either direction with a large enough effect; inconclusive = small, poorly fitted or top-dose-only effect, or another doubt; also: potency is read from the fitted curve at half-maximal effect; % is scaled to controls: 0 for no effect and ±100 for the full control effect; many of its hits are not listed in these tables
HBB splice mod: alters splicing of the hemoglobin beta chain; HBB splicing reporter cell assay, activation; EGFP reporter with mutant IVS2-654 intron; response scale: normalised to 500 nM splice-correcting PNA; Potency, µM (top dose mostly 46.1 µM), for the others: at the top dose activation, hits mostly activators; 65,000 compounds, 0.06% hits; AID 925; also: potency is read from the fitted curve at half-maximal effect; 0% is about no effect
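HeLa cells stably expressing EGFP interrupted by mutant beta-globin intron 2 (IVS2-654), 500/well in 2% FCS. Treated with compound for 2 days at 37C. Splicing correction scored as total well GFP intensity (488 nm excitation, 500-520 nm emission); 500 nM antisense PNA served as control.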
Numbers without * were called inactive; i = inactive; ? = inconclusive; . = no result given; [ ] = another dose, or the depositor's remark. Unless noted, calls follow the shape of the dose curve; as a rule, active = well fitted curve in the direction sought with a large enough effect; inconclusive = small, poorly fitted or top-dose-only effect, or another doubt; inactive = no such curve, though single readings can be large; an effect the other way counts as inactive or inconclusive.

SMILES | Luciferase inh | Rhodamine fluor | ERK AVP inh | DNA Pol III inh | TexasRed autofl | Tau filament bind | ALOX15 inhib | CRE Fsk mod | Hsp90 Hop PPI | HBB splice mod
CN(C)c1ccc(C(=S)N2CCOCC2)cc1Br | -2% | . | -20% | 1% | . | 1% | -13% | 10% | 0% | -0.1%
CCOC(=O)Nc1cc(=O)c2ccccc2o1 | -3% | . | -8% | -2%[11.4 µM] | . | 2%[11.4 µM] | 2%[11.4 µM] | ? | -4%[11 µM] | 0.2%[0.0738 µM]
COc1ccc(C2CC(=O)N3CN(Cc4ccco4)CSC3=C2C#N)cc1 (stereo unspecified) | -7% | i | -14% | -4% | i | 4% | ? | 4% | -5% | 12%[0.369 µM]
O=C(Nc1cc(Cl)ccc1Cl)c1noc2c1CCCC2 | 5% | . | 10% | -2% | . | 82% | 4% | -3% | -1%[2.3 µM] | 0.7%
COc1cccc(Cn2c(=O)c(C)nc3cnc(N(C)C)nc32)c1 | 0%[11.4 µM] | i | -16% | -8% | i | 4% | 3% | 13µM* | -3% | 0.8%
Cc1ccc(S(=O)(=O)N(CCO)c2cc3c(s2)CCCC3)cc1 | 1% | i | -10% | -3% | ? | 6% | -22% | 13% | -6% | -0.8%
CCn1c(SCC(=O)Nc2nc3ccccc3s2)nc2c(c1=O)SC(C)C2 (stereo unspecified) | -3% | i | 10% | 4% | i | 23% | -25% | -26% | -8% | -0.4%
COC(=O)C1CCN(C(c2cc(OC)c(OC)c(OC)c2)c2sc3nc(C)nn3c2O)CC1 (stereo unspecified) | -6% | . | . | -3% | . | -20% | -6% | 13µM* | -1% | 0.2%
CS(=O)(=O)Nc1ccc(-c2n[nH]c(=S)n2-c2ccccc2)cc1 | -1% | i | -16% | -7% | i | -4% | -23% | -2% | -1% | 0.0%
CCOc1cc(C(=S)N2CCOCC2)ccc1O | 0% | . | -11% | -7% | . | 1% | ? | 2% | -2% | 0.0%
COCCCN1C(=O)c2[nH]nc(-c3ccccc3O)c2C1c1ccc(Cl)cc1 (stereo unspecified) | 0% | i | 10% | -3% | i | 27% | -30% | -13% | -10% | -1.4%[0.369 µM]
CN(C)S(=O)(=O)Nc1ccc2c(c1)Cc1ccccc1-2 | -2% | . | 2% | -4% | . | -26% | -5% | -3% | 2% | -7.4%
CC(C)CCn1c(=O)c2ccccc2n2c(CN(C)Cc3ccccc3)nnc12 | 4% | i | -17% | 0% | i | 0% | 1% | ? | -5% | -1.1%
CCN(CC)S(=O)(=O)c1ccc(NC(=O)C2COc3ccccc3O2)cc1 (stereo unspecified) | 0% | i | -10% | 0% | i | -6% | -4% | -14% | 5% | -0.1%[57.5 µM]
COC(=O)Nc1sc2c(c1C(N)=O)CCCCCC2 | 0% | i | -17% | -8% | i | -20% | 13µM* | 0% | -3% | -0.5%
Cc1ccc(OCc2nnc(NC(=O)Cc3cccs3)s2)cc1 | -2% | i | -6% | -4% | i | 77% | 8% | -3% | -5% | -1.0%
CCn1c(-c2cc(OC)c(OC)c(OC)c2)n[nH]c1=S | 0% | i | -12% | 11% | i | 11% | -3% | ? | -1% | 1.3%[57.5 µM]
CCCN(CCC)S(=O)(=O)c1ccc(C(=O)NCc2ccc3c(c2)OCO3)cc1 | 3% | . | . | -1% | . | 134% | -8% | 4% | -1% | 0.4%
O=C1CCCC2=C1C(c1cccc(Br)c1)n1nc(-c3ccco3)nc1N2 (stereo unspecified) | -1% | . | -22% | -1% | . | 60% | -7% | ? | -6% | -0.9%

Arranged by SMILES length (ascending): part of the list above.
SMILES | Luciferase inh | Rhodamine fluor | ERK AVP inh | DNA Pol III inh | TexasRed autofl | Tau filament bind | ALOX15 inhib | CRE Fsk mod | Hsp90 Hop PPI | HBB splice mod
Cc1ccc(OCc2nnc(NC(=O)Cc3cccs3)s2)cc1 | -2% | i | -6% | -4% | i | 77% | 8% | -3% | -5% | -1.0%
CN(C)S(=O)(=O)Nc1ccc2c(c1)Cc1ccccc1-2 | -2% | . | 2% | -4% | . | -26% | -5% | -3% | 2% | -7.4%
CCn1c(SCC(=O)Nc2nc3ccccc3s2)nc2c(c1=O)SC(C)C2 (stereo unspecified) | -3% | i | 10% | 4% | i | 23% | -25% | -26% | -8% | -0.4%
O=C1CCCC2=C1C(c1cccc(Br)c1)n1nc(-c3ccco3)nc1N2 (stereo unspecified) | -1% | . | -22% | -1% | . | 60% | -7% | ? | -6% | -0.9%
CCCN(CCC)S(=O)(=O)c1ccc(C(=O)NCc2ccc3c(c2)OCO3)cc1 | 3% | . | . | -1% | . | 134% | -8% | 4% | -1% | 0.4%

The list is partial; the hit share may differ from the screen's.
